Screening results from PubChem.
T cruzi repl: T. cruzi replication inhibition; T. cruzi beta-gal in NIH3T3, luminescence, 90 h; inhibition, % (concentration not given with the values); 300,000 tested, 1.4% active; AID 1885;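 active means mean inhibition across valid replicates above about 55%, limit read from the data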;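 further: signal also drops with host cell toxicity which is not excluded here; 0% = plate median of DMSO wells and 100% = zero luminescence signal; higher percent means less beta-gal luminescence so fewer parasites; stock transfer was 50 nL into about 50 µL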
Beta cell apopt: blocks beta cell apoptosis | protection from apoptosis, % (test concentration not listed) | INS-1E cytokine-induced death, ATP luminescence, 48 h; percent of positive-control rescue, neutral wells zero | 300,000 tested, 0.8% active | AID 435005;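 active means all replicates at 75% or more, or half of them and the mean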;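 further: 0% = cytokine-treated negative control wells and 100% = positive control rescue; higher means more ATP so stronger rescue from cytokine killing; wells of about 40 µL received 100 nL stock; the first replicate is given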
UCH37 inh: human UCH37 deubiquitinating enzyme inhibition; inhibition, % (test concentration not listed); AID 588478; 330,000 tested, 0.33% active; purified proteasome/UCH37, Ub-AMC cleavage fluorescence;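 active means mean of two replicates above 20%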;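 further: 0% = compound-free wells with enzyme and 100% = wells lacking proteasome; stock transfer was 100 nL into about 20 µL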
Target sequence (Q9Y5K5 whole entry, looked up): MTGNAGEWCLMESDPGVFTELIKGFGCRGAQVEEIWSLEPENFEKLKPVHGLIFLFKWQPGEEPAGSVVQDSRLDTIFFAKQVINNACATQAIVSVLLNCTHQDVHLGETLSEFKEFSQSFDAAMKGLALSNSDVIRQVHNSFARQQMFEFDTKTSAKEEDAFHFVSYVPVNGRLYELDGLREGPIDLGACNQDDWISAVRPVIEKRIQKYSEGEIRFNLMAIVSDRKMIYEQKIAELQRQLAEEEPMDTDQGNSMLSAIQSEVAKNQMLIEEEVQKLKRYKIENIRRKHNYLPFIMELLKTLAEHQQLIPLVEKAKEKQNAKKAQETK
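Assay system: Proteasome-bound UCH37. Buffer or medium: pH 7.4 Tris-HCl (50 mM) with ovalbumin, ATP-MgCl2, DTT. Incubation: 30 min preincubation with enzyme, 25 min cleavage at room temperature. Measured by: fluorescence, ex 355 nm, em 460 nm. Read-out basis: percent inhibition. Control set: wells without proteasome as full block, compound-free enzyme plus substrate as uninhibited.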
rRNA inh HTS: inhibits bacterial ribosomal RNA function over humanized ribosomes; E. coli WT GFP vs humanized-ribosome RFP mutants, fluorescence, 24 h; hits give low values; DMSO median 0, no signal -100; GFP signal change (wild-type ribosome), % (no concentration beside the values); 350,000 tested, 1.6% active;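 active means significant combined selectivity score with lowered wild-type GFP, culture density cut under 30%, mutant RFP and density less affected; inactive means any of these conditions unmet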; further: one replicate is shown; some compounds called inactive have numbers as strong as hits
AF4-AF9 inh: MLL-AF4/AF9 protein interaction inhibition; P42568; AlphaScreen, biotin-AF4 peptide binding to FLAG-AF9; inhibition, % at 10 µM; 350,000 tested, 0.47% active; AID 651704;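 active means every replicate reaching a set inhibition limit, whatever the replicate mean, cut at about 25% in these data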;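 further: 0% = plate neutral control median and 100% = total signal loss; the record names both 10 and 1 µM as test concentration; the first replicate is given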
Target sequence (P42568 whole entry, looked up): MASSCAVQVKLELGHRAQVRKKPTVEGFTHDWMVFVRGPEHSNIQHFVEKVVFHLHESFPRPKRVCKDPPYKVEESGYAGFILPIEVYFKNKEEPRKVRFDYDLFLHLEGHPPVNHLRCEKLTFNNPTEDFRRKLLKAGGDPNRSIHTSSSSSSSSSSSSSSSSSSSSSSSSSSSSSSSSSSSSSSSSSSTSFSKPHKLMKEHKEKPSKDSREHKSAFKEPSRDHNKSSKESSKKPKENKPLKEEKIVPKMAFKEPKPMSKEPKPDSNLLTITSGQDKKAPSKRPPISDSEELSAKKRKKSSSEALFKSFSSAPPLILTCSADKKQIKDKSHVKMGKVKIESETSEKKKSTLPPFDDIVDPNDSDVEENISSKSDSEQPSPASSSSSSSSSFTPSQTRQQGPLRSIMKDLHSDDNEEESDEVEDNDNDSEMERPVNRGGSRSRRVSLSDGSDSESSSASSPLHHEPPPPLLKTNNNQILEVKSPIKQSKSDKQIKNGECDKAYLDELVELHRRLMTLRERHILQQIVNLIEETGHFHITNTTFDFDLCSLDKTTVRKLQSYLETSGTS
FGF22 binding: FGF22 (human) thermal shift binding; Q9HCT0; recombinant FGF22 thermal shift, SYPRO orange fluorescence; percent of sucrose octasulfate shift, DMSO zero; calls only at 9.99 µM; 340,000 tested, 1.5% active; AID 651658;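 active means melting point raised past a set limit in the mean and every replicate; three in four hits are not shown here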
Target sequence (Q9HCT0 whole entry, looked up): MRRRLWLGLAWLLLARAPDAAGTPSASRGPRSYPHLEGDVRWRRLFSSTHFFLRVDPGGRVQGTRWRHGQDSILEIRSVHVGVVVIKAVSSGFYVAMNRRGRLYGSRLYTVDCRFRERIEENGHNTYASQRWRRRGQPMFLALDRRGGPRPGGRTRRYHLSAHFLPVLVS
E coli growth: blocks Escherichia coli growth. OD600, 23 h; hits give low values. OD600 absorbance (concentration not given with the values). 330,000 tested, 0.21% active;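 active means OD600 absorbance below the run mean of sample wells minus 3.6 SD, in any replicate, cut at about 0.56 in these data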;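 further: stock transfer was 300 nL into about 60 µL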
Bfl-1 A1 inh: inhibitors of the anti-apoptotic protein A1, read as caspase activation; 330,000 tested, 0.066% active; MEF A1-2A-BIM cells, Caspase-Glo 3/7 luminescence, 3 h; percent of clofoctol response, vehicle zero; caspase activation, % (concentration not given with the values);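 active means over half of replicate activation scores above 10%, or exactly half above 10 with the replicate mean above 10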;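 further: wells of about 30 µL received 50 nL stock; many hits fall short of the cut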
rRNA inh HTS OD600: recorded beside rRNA inh HTS, whose call it bears; OD600 change, %; measured here: OD600 growth;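 optical density of the mix in the first replicate; 0 = DMSO median and -100 = no signal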
rRNA inh HTS RFP: second read-out of rRNA inh HTS, no call of its own (marks repeat the call); RFP signal change, %; measured here: RFP humanized mutant strains;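 first replicate; 0 = DMSO median and -100 = no signal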
An asterisk follows results filed as active; i = inactive; nt = not tested or not shown; + = active, no number; & = joins results of further samples. Some of the compounds tested, so the mix of outcomes need not match the whole.

Screens in order – T cruzi repl | Beta cell apopt | UCH37 inh | rRNA inh HTS | rRNA inh HTS OD600 | rRNA inh HTS RFP | AF4-AF9 inh | FGF22 binding | E coli growth | Bfl-1 A1 inh
- O=C(CSCc1ccc([N+](=O)[O-])cc1)NC1CC2CCC1C2 (centres undefined)
  -7.9 | -2.7 | 3.3 | nt | nt | nt | nt | nt | 0.697 | 1.1
- CN(C)/C=N/c1ncc(C(=O)c2ccc(-c3ccccc3)cc2)s1
  3.3 | 2.7 | nt | -18.4* | 3.9* | -0.8* | -0.5 | i | nt | -2.0
- O=C(O)CSc1cccc2cccnc12
  36.3&-11.3 | 2.9&5.8 | -83.8&-93.6 | -2.9 | 0.1 | 1.2 | -1.7 | i | 0.716&0.72 | -0.2&1.5
- CCOc1cc(C(=O)Nc2c3c(nn2C(C)(C)C)CS(=O)C3)cc(OCC)c1OCC (centres undefined)
  5.4 | -1.8 | 1.8 | nt | nt | nt | nt | nt | 0.642 | 0.0
- Cc1ccc(-n2c3nc(=O)[nH]c(=O)c-3cc3cc([N+](=O)[O-])ccc32)cc1
  5.8 | 7.8 | -2.9 | nt | nt | nt | nt | nt | 0.634 | 0.4
- CCOc1ccccc1NC(=O)CN(c1ccc(OC)cc1OC)S(=O)(=O)c1ccccc1[N+](=O)[O-]
  39.2 | -18.8 | 2.8 | 11.4 | 13.6 | 4.1 | 4.2 | i | 0.704 | 1.9
- Cc1cc(C)n(C(=O)COc2ccc([N+](=O)[O-])cc2)n1
  0.4 | -7.7 | -0.3 | nt | nt | nt | nt | nt | 0.7 | -0.3
- Cc1cccc(OC(C)C(=O)N2CCN(Cc3ccc4c(c3)OCO4)CC2)c1 (centres undefined)
  9.3 | -2.3 | 2.2 | -0.3 | 2.3 | 2.5 | -2.0 | i | 0.638 | 1.3
- Cc1noc(C)c1CSCC(=O)N(C)CC(=O)Nc1ccc(F)c(F)c1F
  -7.2 | 0.2 | 1.2 | 1.7 | -0.7 | -3.0 | -3.4 | i | 0.689 | 0.4
- CC1CC1C(=O)Nc1ccc(-c2ccccc2)cc1 (centres undefined)
  0.3 | 4.7 | 4.6 | -7.1 | -3.7 | -2.2 | -2.8 | i | 0.733 | -0.5
- COc1cccc(C(=O)Nc2c(F)c(F)c(F)c(F)c2F)c1
  6.3 | -5.3 | -1.0 | nt | nt | nt | nt | nt | 0.732 | -0.4
- Cc1cccc(OCc2nc3ccccc3n2C)c1
  -7.9 | -5.8 | 3.3 | -16.6 | -11.2 | 0.8 | 2.3 | i | 0.694 | 0.9
- Cc1c(C=O)c2ccccc2n1CC(=O)NCc1ccc2c(c1)OCO2
  -15.9 | 3.0 | 2.4 | 0.6 | 1.6 | -2.0 | -5.3 | i | 0.68 | 0.4
- N#Cc1c(-c2ccccc2)nc(-c2ccncc2)[nH]c1=O
  -12.1 | -1.0 | 3.1 | 8.4 | 5.1 | -1.5 | 1.4 | + | 0.684 | 2.7
- CNC(=O)c1ccsc1NC(=O)CCS(=O)(=O)c1ccc(Cl)cc1
  9.0 | -11.0 | 3.7 | -3.8 | -0.6 | 0.4 | -3.7 | i | 0.682 | -1.4
- CC(C)(C)OC(=O)NCCc1nnc(S(=O)(=O)Cc2ccc(Cl)cc2Cl)o1
  -13.0 | -87.6 | -1.1 | nt | nt | nt | nt | nt | 0.783 | 5.9*
- N#C/C(=C/c1ccc(-c2ccccc2)o1)c1nc(-c2cccs2)cs1
  nt | -2.8 | nt | 36.0 | 3.5 | -1.4 | 2.0 | i | nt | 0.1
- CC(=O)c1c(N2CCCC2)nc(=S)n(-c2ccccc2)c1C
  -12.2 | 2.8 | 4.6 | nt | nt | nt | nt | nt | 0.699 | -0.1
- CCOC(=O)c1ccc[n+](CC(=O)Nc2cc(C(F)(F)F)ccc2Cl)c1
  -10.0 | -4.9 | 1.9 | 8.9 | 13.1 | 1.0 | 1.8 | i | 0.661 | 0.0
- COc1cc2c(c(OC)c1)C(c1ccncc1)CC(=O)N2 (centres undefined)
  nt | -2.3 | 7.2 | -11.0 | -10.8 | -3.0 | -1.1 | i | 0.728 | -0.1

Structures listed so far containing a Cl atom, in the order listed:
Screens in order – T cruzi repl | Beta cell apopt | UCH37 inh | rRNA inh HTS | rRNA inh HTS OD600 | rRNA inh HTS RFP | AF4-AF9 inh | FGF22 binding | E coli growth | Bfl-1 A1 inh
- CNC(=O)c1ccsc1NC(=O)CCS(=O)(=O)c1ccc(Cl)cc1
  9.0 | -11.0 | 3.7 | -3.8 | -0.6 | 0.4 | -3.7 | i | 0.682 | -1.4
- CC(C)(C)OC(=O)NCCc1nnc(S(=O)(=O)Cc2ccc(Cl)cc2Cl)o1
  -13.0 | -87.6 | -1.1 | nt | nt | nt | nt | nt | 0.783 | 5.9*
- CCOC(=O)c1ccc[n+](CC(=O)Nc2cc(C(F)(F)F)ccc2Cl)c1
  -10.0 | -4.9 | 1.9 | 8.9 | 13.1 | 1.0 | 1.8 | i | 0.661 | 0.0

Additional structures
Screens in order – T cruzi repl | Beta cell apopt | UCH37 inh | rRNA inh HTS | rRNA inh HTS OD600 | rRNA inh HTS RFP | AF4-AF9 inh | FGF22 binding | E coli growth | Bfl-1 A1 inh
- Cc1cc(C)nc(Nc2ccc(F)cc2)n1
  -5.6 | -1.0 | 0.1 | 18.4 | 5.1 | 3.4 | 1.9 | i | 0.639 | 0.2
- COc1ccc(CCNC(=O)c2ccc(Cl)c(S(=O)(=O)N(C)c3ccccc3)c2)cc1
  8.6 | -1.3 | 0.1 | nt | nt | nt | nt | nt | 0.654 | 0.6
- O=C(C1CCCN1S(=O)(=O)c1ccc(Br)cc1)N1CCOCC1 (centres undefined)
  -3.2 | -5.8 | 0.7 | -2.1 | 1.6 | -0.7 | -1.1 | i | 0.642 | -0.4
- Cc1cc(C)nc(N2CCC(C(=O)Nc3nnc(C)s3)CC2)n1
  5.7 | 8.1 | -2.1 | nt | nt | nt | nt | nt | 0.689 | 0.4
- COc1ccc(S(=O)(=O)N2CCN(CCO)CC2)cc1-c1nnc2c3ccccc3c(C)nn12
  -9.4 | 3.6 | 1.7 | -4.0 | 4.2 | -0.8 | 0.6 | i | 0.716 | -0.1
- Cc1ccc(N(C(=O)C(F)(F)F)C(C(=O)NC2CCCCC2)c2cccs2)cc1C (centres undefined)
  6.9 | nt | 2.4 | nt | nt | nt | nt | nt | 0.68 | 0.0
- O=C(CCc1nc2ccccc2c(=O)[nH]1)Nc1cc(C(F)(F)F)ccc1N1CCCC1
  nt | -4.1 | 2.8 | -1.2 | 6.2 | -3.7 | 1.4 | i | 0.695 | 0.0
- COc1cccc(CC2(CO)CCN(Cc3ccc4cccc(F)c4n3)CC2)c1
  34.9 | -1.5 | 1.6 | -4.2 | -15.1 | 0.4 | 3.0 | nt | 0.689 | -0.3
- COc1ccc(N2CC(C(=O)N[C@@H](C)C(=O)N3CCCCC3)CC2=O)cc1 (some centres undefined)
  -15.6 | 0.5 | 1.8 | 12.6 | 20.1 | 7.1 | -0.6 | i | 0.681 | 0.5
- COC(=O)c1ccc(Oc2nc(SC)nc(N(C)C)n2)cc1
  6.1 | -15.3 | 7.1 | -7.9 | 10.2 | -3.1 | 10.6 | i | 0.659 | 0.6
- N#CCCN1CCN(S(=O)(=O)c2ccc(S(=O)(=O)N3CCCCCC3)cc2)CC1
  -3.3 | -3.4 | -1.6 | 1.8 | 5.6 | -3.1 | -1.0 | i | 0.711 | 0.3
- COc1cc([N+](=O)[O-])cc2sc(NC(C)=O)nc12
  -11.3 | -1.0 | 5.3 | 3.1 | 7.8 | 5.6 | 10.2 | i | 0.651 | -1.0
- CC1Nc2ncnc(N3CCN(c4ccccc4)CC3)c2N(Cc2ccc(Cl)cc2)C1=O (centres undefined)
  21.9 | 3.0 | 0.6 | 0.2 | -8.7 | 5.5 | 9.6 | i | 0.705 | 0.0
- CCOc1ccc(CCNC(=O)c2ccc(CS(=O)Cc3ccccc3Cl)o2)cc1 (centres undefined)
  -9.0 | -0.1 | 2.0 | -4.7 | 1.8 | -2.6 | 0.0 | i | 0.692 | 0.6
- COc1ccc(CN2CCN(CCCc3ccccc3)C(CCO)C2)cc1OC (centres undefined)
  11.4 | -6.4 | 0.6 | 20.2 | 11.8 | 4.0 | -0.4 | i | 0.665 | -0.3
- CCCCNC(=O)CSc1nc2ccsc2c(=O)n1CCCC(=O)NCCc1ccc(S(N)(=O)=O)cc1
  3.0 | -4.8 | 2.6 | 10.7 | -1.1 | -0.8 | -2.5 | i | 0.723 | 1.1
- Cc1ccccc1NC(=O)C1C2C=CC(C3CC23)C1C(=O)O (centres undefined)
  -4.8 | -5.0 | 1.8 | -0.1 | 2.8 | -2.5 | -1.0 | i | 0.662 | 0.1
- COc1ccc(Nc2ccc(S(=O)(=O)N3CCCCC3)cc2[N+](=O)[O-])cc1Cl
  3.3 | 15.9 | 1.2 | 1.8 | 2.9 | -9.3 | 6.8 | i | 0.699 | 0.9
- Cc1ccc(C(=O)COC(=O)CNC(=O)c2ccc(Br)o2)cc1[N+](=O)[O-]
  -6.5 | -7.5 | 7.2 | nt | nt | nt | -2.4 | i | 0.684 | 1.0
- Cc1cc(C=C2C(=O)CCCC2=O)c(C)n1-c1ccccc1
  -12.6 | -9.1 | 0.5 | nt | nt | nt | nt | nt | 0.725 | 0.9
- O=C(Nc1ccc(S(=O)(=O)Nc2ncccn2)cc1)c1ccc(Br)s1
  -21.6 | -11.1 | 3.8 | nt | nt | nt | nt | nt | 0.713 | 0.5
- CC(=O)O[C@@]1(C)C[C@@H](O)[C@]2(O)C=CO[C@@H](O[C@@H]3O[C@H](CO)[C@@H](O)[C@H](O)[C@H]3O)[C@@H]21
  nt | -20.4 | -1.0 | 2.7 | -2.3 | 1.8 | -1.0 | i | 0.82 | 0.0
- COc1cc(/C=C(\C(=O)O)c2ccc(S(=O)(=O)N3CCCC3)s2)ccc1OCCC(C)C
  nt | nt | 8.4 | -11.4 | -26.1 | -3.5 | 0.6 | i | 0.711 | nt
- COc1ccc(-c2cc3c(=O)n(CC(=O)N4CCCCC4)ncn3n2)cc1
  -24.4 | 0.2 | -3.8 | 1.0 | 1.9 | 1.2 | 0.0 | i | 0.618 | 0.4
- COc1cc(-c2noc(CCCC(=O)Nc3cccnc3)n2)cc(OC)c1OC
  4.1 | -0.9 | 0.8 | 10.2 | 12.9 | 0.2 | -3.0 | nt | 0.655 | 0.3
- Cc1nn(-c2ccccc2)c(NC(=O)C(C)C)c(-c2ccccc2)c1=O
  -12.8 | -1.2 | 2.6 | 1.9 | 7.2 | -1.0 | 1.2 | i | 0.692 | -0.2
- CC1C(=O)N2CCCc3cc(S(=O)(=O)N(C)CCC#N)cc1c32 (centres undefined)
  -10.3 | -3.7 | 2.1 | 2.8 | 9.9 | -0.9 | -1.1 | i | 0.709 | 0.7
- O=c1cc(C(F)(F)F)[nH]c2ccc(C(F)(F)F)cc12
  -14.5 | 27.6 | -56.8 | -50.2* | -32.0* | -15.0* | nt | i | 0.582 | -0.5
- CC(NC(=O)C1CCCN(S(=O)(=O)c2cccs2)C1)c1ccccc1 (centres undefined)
  -1.3 | 0.4 | 8.0 | 4.8 | 6.2 | 4.2 | 3.9 | i | 0.723 | -0.4
